Sa ugtP lethal = kills S. aureus RN4220 lacking UgtP | S. aureus RN4220 ugtP deletion, OD600 growth, 16 h; some inactives read as strong as hits | growth inhibition, % (no concentration beside the values) | 330,000 compounds, 0.54% hits | AID 1259309;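 active = z-score under -3 and OD600 up to 0.15 on both plates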;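 also: plate controls were untreated wells for no effect and antibiotic for full effect; wells of about 80 µL received 100 nL stock; the first replicate is given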
Sa RN4220 lethal = kills Staphylococcus aureus RN4220; inhibition, % (test concentration not listed); S. aureus RN4220 growth, OD600, 16 h; 330,000 compounds, 0.33% hits;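 active = z-score of -3 or lower and OD600 up to 0.18 on both plates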;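 also: plate controls were untreated cells for no effect and reference antibiotic for full effect; stock transfer was 100 nL into about 80 µL; one replicate is shown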
BJeLR viability = kills HRASV12-expressing BJeLR cells; AID 1554; inhibition, % (test concentration not listed); 300,000 compounds, 0.17% hits; BJeLR (HRASV12) viability, CellTiter-Glo ATP luminescence, 48 h; reference of the scale not given here;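 active = replicate mean above 50%; inconclusive = above 50% but judged a plate artefact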;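 also: 50 nL library stock added to about 25 µL; numbers are from one replicate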
Bead autofluor = flagged as autofluorescent in microsphere protease counterscreen; compound autofluorescence counterscreen, microsphere flow cytometry; stronger effect = higher value; fluorescence intensity (test concentration not listed); 360,000 compounds, 3.1% hits; AID 624483;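 active = at least 3 SD above the mean of all compounds, about 16000 in these data; inconclusive = too few beads counted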;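 also: 100 nL of 1 mM stock went into each well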
Mtb hypoxia rep = reduces hypoxia-regulated biosensor signal in M. tuberculosis. AID 1159583. fluorescence inhibition, % (no concentration beside the values). 300,000 compounds, 0.1% hits. M. tuberculosis hypoxia-regulated fluorescent reporter, fluorescence;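 active = 35 to 45% if threefold the growth effect, above 45% if 1.5-fold the growth effect; inactive = the rest, general growth blockers included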;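 also: wells of about 50 µL received 100 nL stock; 0% = vehicle wells and 100% = reference inhibitor wells; whole bacteria with a GFP reporter of the hypoxia response; strong numbers were not always called active; many hits fall short of the cut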
PrP UTR inh = suppresses PrP 5' UTR mRNA reporter expression; 340,000 compounds, 0.35% hits; AID 488862; cell-based PrP 5' UTR mRNA reporter, plate reader; inhibition, % (test concentration not listed);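 active = every replicate at 50% or more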;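 also: 0 = median of the neutral control wells; tested in H4 reporter cells; numbers are from one replicate; inactives centre near -14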
Mtb hypoxia rep growth = second read-out of Mtb hypoxia rep, no call of its own (marks repeat the call); growth inhibition, %; measured here: M. tuberculosis growth (absorbance);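 0% = vehicle and 100% = reference antibiotic; read after six days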
* = called active by the depositor; u = inconclusive; x = no result given.

Assay codes – A = Sa ugtP lethal; B = Sa RN4220 lethal; C = BJeLR viability; D = Bead autofluor; E = Mtb hypoxia rep; F = Mtb hypoxia rep growth; G = PrP UTR inh
CC(C)(C)OC(=O)N1CCCC1C(=O)NCCc1ccccc1 (stereo unspecified)
  A: -4; B: 1.6; C: 8; D: 3092; E: 16; F: 10; G: -9

CC(C)c1ccc(/C=C/C(=O)NC2CCCCC2)cc1
  A: 1; B: 5.9; C: -13; D: 2152; E: 9; F: 4; G: -24

O=C(C1=NNCC1c1ccc(Cl)cc1)C1CO1 (stereo unspecified)
  A: 10; B: -1.4; C: -17; D: 2181; E: 16; F: 11; G: -12

S=c1[nH]cnc2scc(-c3ccc(Cl)cc3)c12
  A: 0; B: -5.1; C: -3; D: 5607; E: 5; F: 0; G: x

CCOC(=O)c1cn(CC)c2c(ccc3ccccc32)c1=O
  A: 16; B: 2.5; C: -7; D: 3843; E: 4; F: 3; G: -29

CCOC(=O)Cn1cc(C=NNC(=O)c2cc3ccccc3o2)c2ccccc21
  A: 9; B: 3.8; C: x; D: x; E: -9; F: -4; G: x

CC(NC(=O)CNC(=O)c1ccco1)c1ccccc1 (stereo unspecified)
  A: 9; B: 4.7; C: -3; D: 4723; E: -5; F: 5; G: -25

C=CCOc1ccc(/C=C/C(=O)OCC(=O)N(C)C2CCS(=O)(=O)C2)cc1 (stereo unspecified)
  A: 9; B: 5.8; C: 5; D: 5876; E: 8; F: 2; G: -15

CN(c1ncc(C(F)(F)F)cc1Cl)N1C(=O)c2cccc(N)c2C1=O
  A: -5; B: -3.7; C: -5; D: 4482; E: -6; F: 1; G: -1

Cc1cc(C(=O)O)c(S(C)(=O)=O)s1
  A: -5; B: 6.8; C: -7; D: 4233; E: 17; F: 6; G: -9

CC(C)n1nnnc1CN1CCN(C)CC1
  A: 4; B: -2.6; C: -5; D: 6065; E: x; F: x; G: -11

CC(C)(C)c1ccc(OCC(=O)NCc2ccco2)cc1
  A: 5; B: -2.8; C: 0; D: 10252; E: 5; F: 0; G: -23

CCOC(=O)C1=C(CS(=O)(=O)c2ccccc2)NC(=O)NC1c1ccccc1 (stereo unspecified)
  A: 3; B: 7.9; C: -2; D: 4401; E: 15; F: 9; G: -11

CC1(C)Cc2nc(N3CCCC3)c(C#N)cc2CO1
  A: 5; B: 4.7; C: 0; D: 3367; E: 10; F: 7; G: -10

COc1ccc(Oc2ccc(C=NNC(=O)c3cccnc3)cc2[N+](=O)[O-])cc1
  A: 11; B: 1.8; C: x; D: x; E: 7; F: 9; G: x

Cc1ccc(N/C=C(\C2OC(=O)c3ccccc32)[N+](=O)[O-])c(C)c1 (stereo unspecified)
  A: 2; B: 4.5; C: 2; D: 4407; E: 2; F: 7; G: -40

O=C(Cc1ccccc1)N1CCN(Cc2c[nH]c3ccccc23)CC1
  A: -2; B: -0.8; C: 3; D: 5539; E: -4; F: 11; G: -7

COc1ccc(C)cc1NC(=O)CN1CCN(S(=O)(=O)c2ccc3ccccc3c2)CC1
  A: 1; B: -6.4; C: x; D: 3702; E: -2; F: 3; G: -23

O=C(CN1C(=O)CCSc2ccccc21)Nc1ccc(F)cc1
  A: -4; B: 1.9; C: 4; D: 9492; E: 2; F: 9; G: x

CCN(C(=O)CN1C(=O)CN(C)C1=O)c1cccc2ccccc12
  A: -2; B: 5.8; C: x; D: 4537; E: 13; F: 5; G: -28

O=C(Cc1ccc(S(=O)(=O)N2CCOCC2)s1)Nc1ccccc1N1CCCC1
  A: -1; B: 5.8; C: -5; D: u; E: 10; F: 2; G: -4

CCOC(=O)c1sc(NC(=O)Nc2cccc(Cl)c2)cc1C
  A: 88*; B: 92*; C: 3; D: 11211; E: -3; F: 3; G: -79

Cc1cc(OCC(O)CN2CCN(c3ccccn3)CC2)cc(C)c1Cl (stereo unspecified)
  A: -2; B: 6.0; C: -4; D: x; E: 6; F: -2; G: -14

CC1CC(C)CN(C(=O)c2ccc3nc[nH]c3c2)C1 (stereo unspecified)
  A: 4; B: 3.0; C: 14; D: 4266; E: -2; F: -1; G: -8

COc1ccc(C=O)cc1
  A: 4; B: 6.0; C: x; D: 5625; E: 12; F: 5; G: -25

Full records, looked up by structure. Screens in order: Sa ugtP lethal	Sa RN4220 lethal	BJeLR viability	Bead autofluor	Mtb hypoxia rep	Mtb hypoxia rep growth	PrP UTR inh
COc1ccc(Oc2ccc(C=NNC(=O)c3cccnc3)cc2[N+](=O)[O-])cc1 is entered as 11	1.8	x	x	7	9	x
Cc1cc(C(=O)O)c(S(C)(=O)=O)s1 is entered as -5	6.8	-7	4233	17	6	-9
CC1CC(C)CN(C(=O)c2ccc3nc[nH]c3c2)C1 (stereo unspecified) is entered as 4	3.0	14	4266	-2	-1	-8
CCOC(=O)c1sc(NC(=O)Nc2cccc(Cl)c2)cc1C is entered as 88*	92*	3	11211	-3	3	-79
Cc1cc(OCC(O)CN2CCN(c3ccccn3)CC2)cc(C)c1Cl (stereo unspecified) is entered as -2	6.0	-4	x	6	-2	-14

(further entries)
Assay codes – A = Sa ugtP lethal; B = Sa RN4220 lethal; C = BJeLR viability; D = Bead autofluor; E = Mtb hypoxia rep; F = Mtb hypoxia rep growth; G = PrP UTR inh
CCOC(=O)c1ccc(N2CN=C3SCC(=O)N3C2)cc1
  A: 4; B: 4.1; C: 1; D: 23262*; E: 8; F: 10; G: -17

O=C1ON=C(c2ccccc2)/C1=C\c1ccco1
  A: -3; B: 2.0; C: 1; D: 3662; E: 0; F: 8; G: -23

CCS(=O)(=O)Nc1ccc(-c2nnc(SCC(=O)c3ccc(NC(C)=O)c(OC)c3)o2)cc1
  A: 10; B: 0.7; C: 15; D: 2172; E: x; F: x; G: -9

CCn1c(SCC(=O)NCc2ccccc2)nc2ccccc2c1=O
  A: -2; B: 4.2; C: -9; D: 9096; E: 16; F: 6; G: -9

Cc1ncc(CN2CCCC(CCC(=O)NCc3ccccc3F)C2)s1 (stereo unspecified)
  A: -3; B: 3.1; C: 0; D: 2686; E: 7; F: 14; G: -26

O=C1CSC(c2cccnc2)N1C1CCCCC1 (stereo unspecified)
  A: 3; B: 7.5; C: 2; D: u; E: 2; F: 4; G: -21

CCNC(=S)Nc1ccc2cn[nH]c2c1
  A: 11; B: 5.3; C: 3; D: 6887; E: 11; F: 4; G: 4

O=C(CSc1nc2cccnc2n1Cc1ccccc1)N1CCCC1
  A: 5; B: 3.5; C: -2; D: 4565; E: 6; F: 2; G: -24

c1ccc(Nc2c(-c3ccco3)nc3ccccn23)cc1
  A: x; B: x; C: -14; D: 8680; E: x; F: x; G: -9

O=S(=O)(Nc1ccc(N2CCOCC2)cc1)c1cc(Cl)ccc1Cl
  A: 3; B: 5.4; C: -3; D: 2879; E: 1; F: -7; G: 5

NC(=O)c1ccc(CN2CCC(Cc3ccccc3)CC2)cc1
  A: 11; B: 3.3; C: 14; D: 3799; E: 6; F: 7; G: -22

CCCOC(=O)c1ccc(Nc2nc(C)cc(=O)[nH]2)cc1
  A: -9; B: 6.7; C: 10; D: 2411; E: 13; F: 8; G: -6

COC(=O)c1cc(S(=O)(=O)N2CCCCCC2)cn1C
  A: -1; B: -1.2; C: 4; D: 5473; E: 5; F: 9; G: -6

Cn1c(=O)c2c(nc(CN3CCCCC3)n2Cc2c(F)cccc2Cl)n(C)c1=O
  A: 8; B: 11; C: x; D: 6721; E: 1; F: 4; G: -39

Clc1ccc(-c2nc(N3CCOCC3)nc3ccccc23)cc1
  A: 17; B: -0.6; C: 1; D: 4215; E: 13; F: 1; G: -16

Cc1nc2cc(F)ccc2n1C1CCN(C(=O)c2c(F)cccc2F)CC1
  A: -1; B: 2.1; C: 7; D: 4452; E: 15; F: 10; G: -8

Cc1cc(C)nc(SCc2ccc(Br)cc2)n1
  A: 5; B: 0.6; C: -4; D: 3752; E: -7; F: -12; G: 1

CCOC(=O)N1CCC(N(CCN(C)C)C(=S)Nc2cccc(SC)c2)CC1
  A: 9; B: 5.4; C: 13; D: 4293; E: -7; F: 8; G: -7

O=C(Nc1nc2ccccc2s1)NC1CCCCC1
  A: -11; B: 4.7; C: 7; D: 3305; E: 1; F: 13; G: -63

CCN(CC)CCNC(=O)CSc1c2c(nc3cc(Cl)ccc13)CCCC2
  A: 1; B: 0.4; C: 3; D: 2836; E: -1; F: 11; G: -15

CSC1=NC(C)(C)CC2(C)Nc3ccccc3N12 (stereo unspecified)
  A: x; B: x; C: -1; D: 7595; E: x; F: x; G: -23

CC(C)(C)c1ccc(OCc2ccc(C(=O)N/N=C/c3ccc([N+](=O)[O-])cc3)o2)cc1
  A: x; B: x; C: 9; D: 4508; E: x; F: x; G: -86

CCCN1CCN(c2ccc(S(N)(=O)=O)cc2[N+](=O)[O-])CC1
  A: 15; B: 5.9; C: 15; D: 4306; E: 6; F: 12; G: -12

COc1ccc(-n2ncc3c(NCc4ccccn4)ncnc32)cc1
  A: 0; B: 8.5; C: 8; D: 10467; E: 6; F: 11; G: -28

CCCc1nnc(NC(=O)c2cc(OC)cc(OC)c2)s1
  A: 0; B: 3.9; C: -7; D: 3827; E: 9; F: 15; G: -6

O=C(Cn1c2ccc(F)cc2c2nc3n(c(=O)c21)CCS3)Nc1ccccc1C(F)(F)F
  A: -1; B: 0.5; C: -4; D: 3817; E: -3; F: 14; G: -20

CCOC(=O)C1=C(C)Nc2ccccc2N=C1NC(=O)c1cccc(S(=O)(=O)NCc2ccccc2)c1
  A: 8; B: 5.0; C: -2; D: u; E: 7; F: 5; G: -20

COc1ccc(C(=O)N2CCN(c3nc4ccccc4o3)CC2)cc1OC
  A: -1; B: 5.7; C: 5; D: 5995; E: 1; F: 3; G: -13

COc1ccccc1CNc1ncnc2cc(OC)c(OC)cc12
  A: 0; B: 1.2; C: 1; D: 5100; E: 10; F: 5; G: -13

COc1ccccc1-c1cc(C(=O)NC(C)C)no1
  A: 0; B: -0.4; C: 12; D: 8192; E: 13; F: 16; G: -85

O=C(Nc1ccccc1N1CCOCC1)c1ccccc1[N+](=O)[O-]
  A: -4; B: 15; C: 2; D: 24174*; E: 1; F: 19; G: -3

CCC(=O)Nc1ccccc1C(=O)OCC(=O)c1ccc2ccccc2c1
  A: -19; B: 4.1; C: 3; D: 23453*; E: 1; F: 12; G: -43

COc1ccc(-c2cn[nH]c2-c2ccc(OCc3ccc([N+](=O)[O-])cc3)cc2O)cc1
  A: -4; B: 13; C: 11; D: 2314; E: 4; F: 1; G: 0

CC12CN3CCN(CC(C3)/C1=N\NC(=O)c1ccccc1N)C2
  A: x; B: x; C: -11; D: 5601; E: x; F: x; G: -23

FC(F)(F)c1cccc(NC(=S)NNC(=S)NCc2ccccc2)c1
  A: -14; B: -4.2; C: -10; D: 10232; E: -6; F: 3; G: -36

CCC(C(=O)OCC(=O)N1CCN(c2ccc(OC)cc2)CC1)c1ccccc1 (stereo unspecified)
  A: -1; B: 0.4; C: x; D: 8174; E: -3; F: 7; G: -2

CN1C(=O)/C(=C\C=C2/CCCN2C)N(C)C1=S
  A: x; B: x; C: 5; D: 5310; E: x; F: x; G: -30

CCOc1ccc(NC(=O)c2cc3n(n2)C(C(F)(F)F)CC(c2ccco2)N3)cc1 (stereo unspecified)
  A: 1; B: 5.7; C: 0; D: 2500; E: 6; F: 15; G: -22

Nc1nc(Cl)nc2ccc(Br)cc12
  A: x; B: x; C: -4; D: 3148; E: x; F: x; G: 1

CCOc1ccccc1NC(=S)NC1CC2CCC1C2 (stereo unspecified)
  A: 0; B: 0.7; C: -2; D: 3799; E: 5; F: 1; G: -16

O=C(Nc1ccc(N2CCOCC2)c(Cl)c1)c1cccnc1Cl
  A: -9; B: -2.5; C: 9; D: 2928; E: -2; F: -9; G: -35

COc1cc(/C=N/NC2=NCCCCC2)ccc1O
  A: x; B: x; C: 1; D: 5044; E: x; F: x; G: -18

Cc1cc(C)cc(NC(=O)C(Sc2ncnc3ccccc23)c2ccccc2)c1 (stereo unspecified)
  A: 12; B: -2.3; C: 1; D: 2260; E: 1; F: -3; G: -18

CC(=O)N1CCN(CC(=O)Nc2ccc(C#N)c(Cl)c2)CC1
  A: 2; B: 2.0; C: x; D: 4193; E: 10; F: 3; G: -20

O=[N+]([O-])c1ccc(C=NNc2nc(N3CCCCC3)nc(N3CCCCC3)n2)cc1
  A: 2; B: 8.2; C: x; D: x; E: -2; F: -6; G: x

Cc1noc(/C=C/N(C)C)c1S(=O)(=O)N(C)CC(=O)N1CCc2ccccc21
  A: -4; B: 2.3; C: 3; D: x; E: x; F: x; G: x

Screens from PubChem BioAssay.
